Screens deposited in PubChem BioAssay by ICCB-Longwood Screening Facility, Harvard Medical School.
MgrA DNA FP: modulators of Staphylococcus aureus MgrA DNA binding | AID 602314 | fluorescence polarization | hit rate 0.13% among 84,000 | inhibition, %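 (about 10 µg/mL by stock and volumes)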;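 active = above 50% in either of two replicates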;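 also: 0% = protein plus DNA without compound and 100% = DNA alone without protein; higher means less MgrA bound to DNA so lower polarization; one replicate is shown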
Sa helicase inh: S. aureus DNA helicase inhibition; purified S. aureus helicase, fluorescence unwinding assay; about half of the hits fall short of the stated cut; hit rate 0.05% among 120,000; AID 485395; inhibition, %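 (tested at about 80 µM)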;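 active = both duplicates at 50% or more, or one of them with a favoured structure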;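 also: 0% = mean of negative control wells and 100% = mean of positive control wells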
The depositor's hits bear a star; / = not tested or not shown. These rows are one share of the data; rates above refer to the full screens.

MgrA DNA FP,Sa helicase inh,structure
/,36,CCN(CC)c1ccc(NC(=O)c2oc3ccccc3c2COC)cc1
/,18,Cc1ccc(-c2n[nH]c(=S)o2)cc1
/,-12,CCN(CC)C(=O)CSc1nc(-c2ccccc2)c(-c2ccccc2)o1
-0.2,2,CCOC(=O)c1ccc(NC(=O)c2ccc(C(C)(C)C)cc2)cc1
-3.7,-35,CCn1c(/C=C/Nc2ccccc2)[n+](CC)c2ccc(S(=O)(=O)C(F)(F)F)cc21
-3.0,/,O=c1ccc(=O)n(CCO)[nH]1
/,-3,NC(=O)CSC1=Nc2ccccc2C2=NC(CCC(=O)NCc3cccs3)C(=O)N12 (stereo not drawn)
0.8,/,CN(C/C=C/c1ccccc1)Cc1cccc2ccccc12
0.9,0,O=c1[nH]c2ccccc2nc1C(F)(F)C(F)(F)C(F)(F)C(F)F
/,-25,CC(=O)Nc1ccc(OC(=O)c2cc3ccccc3oc2=O)cc1
/,7,COC(=O)c1ccc(CSc2nc(=O)n3cc(C)ccc3n2)o1
/,10,Nc1nnc(SCC(=O)OCC(=O)Nc2ncc(Cl)cc2Cl)s1
-10,0,COCc1nc2ccccc2n1C(C)C
/,20,Cc1onc(-c2ccccc2)c1C(=O)OCCCn1c(=O)[nH]c2ccccc21
-2.6,7,Fc1ccc(-n2nnc3c(SCc4ccc(C(F)(F)F)cc4)ncnc32)cc1
/,3,CC1(C)Cc2cccc(OCC(=O)N3CCN(S(=O)(=O)c4ccc(F)cc4)CC3)c2O1
/,-33,Cc1ccc(C(C(=O)NC2CCCC2)N2CCN(C(=O)c3ccco3)CC2)cc1 (stereo not drawn)
0.6,-7,O=C(CCn1c(=O)sc2ccccc21)Nc1ccccn1
/,-52,O=C(/C=c1\[nH]c(=O)/c(=C\c2ccsc2)s1)c1ccco1
-1.8,/,COC(=O)c1c(C)nn(C(=O)c2cccs2)c1-c1snnc1C
/,7,c1ccc(-n2ncc3c(NCc4ccccn4)ncnc32)cc1
-2.3,16,O=C(CSc1c2c(nc3cc(Cl)ccc13)CCCC2)N1CCCCCC1
-2.8,/,CCN(CC)c1ccc(-c2c(C#N)c(N)nc(OC)c2C#N)cc1
-4.4,8,CCn1c2ccccc2c2nnc(N3CCC(C(N)=O)CC3)nc21
/,19,N#Cc1ccc(NC(=O)COC(=O)c2cccc(S(=O)(=O)N3CCCC3)c2)cc1
0.6,11,Cc1ccc(C(C(=O)NC2CCCCC2)N(C(=O)Cc2c[nH]c3ccccc23)C2CC2)o1 (stereo not drawn)
-0.3,7,Cn1nc(C(=O)NCc2ccco2)c2c1-c1ccccc1SC2
-0.6,8,Cc1ccc(C(=O)C(C)OC(=O)C2CC(=O)N(C3CCCCC3)C2)cc1 (stereo not drawn)
/,15,CCC1CCCCN1C(=O)CSc1nnc(-c2ccccc2)o1 (stereo not drawn)
-2.6,/,Cn1nc(-c2ccc(S(=O)(=O)N3CCCN(C(=O)OC(C)(C)C)CC3)s2)cc1C(F)(F)F
-0.7,7,CN(c1ccc(Cl)cc1)S(=O)(=O)c1cccc(C(=O)Nc2ccccc2)c1
-1.0,/,CSc1nc(-c2cccs2)cc(C(F)(F)F)c1C#N
-0.7,/,COc1ccc(-c2nnc(-c3c(C)noc3C)o2)cc1
/,-9,CCN(C(C)=O)c1nc(-c2ccc(Br)cc2)cs1
2.9,-4,Nc1ccccc1C(=O)Cc1ccccc1
4.4,1,c1ccc2c(c1)ncn1nc(-c3cc(C4CC4)[nH]n3)nc21
-1.0,6,O=C(Cc1ccccc1)N1CCC(O)(c2cccnc2)CC1
0.8,1,C=C(C)c1cccc(C(C)(C)NC(=O)N2CCC(C(=O)OCC)CC2)c1
/,10,CN(C)/C=C1\S/C(=N\S(=O)(=O)c2cccs2)N(c2ccccc2)C1=O
-1.0,/,CCOC(=O)N1CCN(c2cc(C(F)(F)F)nc3ccccc23)CC1
-0.4,0,C=CCOC(=O)c1cn(CC)c2nc(C)ccc2c1=O
/,-8,O=C(CN1CCc2ccccc21)NC(=O)NCc1ccco1
-1.5,/,CC1(C)CC(=O)C2=C(C1)OC(N)=C(C#N)C2c1ccccc1OCc1ccccc1Cl (stereo not drawn)
/,20,COc1ccc(N2CCN(C3c4ccccc4CC3NS(=O)(=O)c3ccccc3)CC2)cc1 (stereo not drawn)
1.2,3,CCOC(=O)c1cnc2c(C)c(Cl)ccc2c1Nc1cc(C)ccc1OC
/,7,O=C(NCCc1ccccc1)/C(=N\O)c1ccccc1
-0.6,15,O=C(NCCc1c[nH]c2ccccc12)c1ccc(F)cc1F
/,11,c1ccc(C2CNCCc3ccccc32)cc1 (stereo not drawn)
/,-10,O=C(Nc1nnc(-c2cccs2)o1)c1ccc2c(c1)CCCC2
1.0,/,COc1cc(C2Nc3cc(C)ccc3NC3=C2C(=O)CC(c2ccccc2)C3)cc(OC)c1OC (stereo not drawn)

Continuation.
MgrA DNA FP,Sa helicase inh,structure
/,-3,Cc1nnc(SCC(=O)c2ccccc2)s1
-1.1,11,CC(C)C(=O)N1CCN(c2ccc(NC(=O)Cc3ccccc3)cc2Cl)CC1
2.8,8,CN1C(c2ccccc2)=Nc2cccc3cccc1c23
/,-13,O=c1cc2c3c(cc(O)cc3o1)OC2
8.1,3,CC1(C)CC2(CCO1)NN=C(c1ccccc1)S2 (stereo not drawn)
0.6,-3,COC(=O)c1cccc(N=C2N=C(N)c3ccccc32)c1
-0.7,7,COc1ccccc1NC(=O)NC1(C(=O)N2CCCCC2)CCCCC1
/,1,O=c1cc(CNc2ccc(S(=O)(=O)N3CCCC3)cc2)c2cc3c(cc2o1)CCC3
-0.4,13,CCOc1cc(C(=O)Nc2ccncc2)cc(OCC)c1OCC
/,28,Cc1ccc(NCc2nc3ccccc3n2C)cc1
/,-13,Cc1nn(-c2ccc(Cl)cc2)c2sc(C(=O)NCCCN3CCCC3=O)cc12
2.8,9,COC(=O)c1ccc2c(c1)sc(=NC(=O)c1ccc(S(=O)(=O)N3CCCCC3C)cc1)n2C (stereo not drawn)
-1.5,-21,COC(=O)c1ccc(NS(=O)(=O)N(C)C)cc1
0.4,/,Cc1nc2ccc(C(F)(F)F)cc2nc1C
-1.7,/,CSc1nc2ccsc2c(=O)n1-c1ccccc1
-1.8,10,CC1CCCN(C(=O)CSc2nc3ccccc3nc2-c2ccccc2)C1 (stereo not drawn)
/,12,COc1ccc(-c2nc3scc(CCN)n3n2)cc1
/,9,CCOC(=O)N1CCN(C(=O)COC(=O)c2ccc3c(c2)NC(=O)CS3)CC1
0.6,-2,CCN(CC)C(=O)NC1CCCCCC1
-0.1,17,COc1ccc(CN2CC(C(=O)NCCN3CCN(c4ccccc4F)CC3)CC2=O)cc1 (stereo not drawn)
2.5,-13,O=C(CC(c1ccccc1)c1ccccc1)NCc1ccccc1
-1.9,2,Cc1ccc(SCC(=O)N2CC(C)CC(C)C2)cc1 (stereo not drawn)
-0.9,/,CCCCCCCCc1ccc(-c2ccc(C(=O)Nc3ccc(O)c4c3C(=O)c3ccccc3C4=O)cc2)cc1
29,/,CCSc1nnc2c(n1)OC(c1cc3c(cc1[N+](=O)[O-])OCO3)Nc1ccccc1-2 (stereo not drawn)
/,32,O=C(COc1ccc(Cl)cc1Cl)Nc1ccc2nc3n(c(=O)c2c1)CCCC3
/,-47,CN1/C(=C\C(=O)c2nc(S(C)(=O)=O)ncc2Cl)C(C)(C)c2ccccc21
-0.3,/,Cc1nn(S(=O)(=O)c2ccc(Cl)s2)c(C)c1[N+](=O)[O-]
/,-14,Cc1ccc(N=C2C(=O)N(CN3CCCC(C)C3)c3ccccc32)cc1 (stereo not drawn)
2.7,3,Cc1cc(NC(=O)c2ccco2)ccc1NC(=O)Cc1ccccc1
-4.1,20,Cc1cc(N2CCCC2)nc2ccc(NC(=S)NC3CCCC3)cc12
/,14,COc1ccc2oc(=O)cc(CN(Cc3ccco3)C3CCCC(C)C3C)c2c1 (stereo not drawn)
/,6,NC(=O)CN1C(=O)CCS(=O)(=O)c2ccccc21
2.0,-7,CNC(=O)CC(=O)NC
/,4,CCOCCn1c(=NC(=O)C2CC2)sc2cc(S(C)(=O)=O)ccc21
/,-19,CC1(C)OC(=O)C(=CNNc2ccc(C(F)(F)F)cc2)C(=O)O1
0.7,/,O=C(Cc1cc(F)cc(F)c1)Nc1ccc(Cl)cc1
/,19,CC1CN(C2CCN(C3CC4CCC3C4)CC2)CC(C)O1 (stereo not drawn)
/,10,CCOC(=O)c1nn(-c2ccc(C)cc2)c(=O)cc1OCC(=O)NCc1ccco1
/,14,Cc1ccc(NC(=O)c2sc3nc(-c4ccccc4)cn3c2C)cc1
/,-4,CC(Cc1n[nH]c(=S)o1)c1ccccc1 (stereo not drawn)
/,16,Cc1ccc(N)c(C(O)(C(F)(F)F)C(F)(F)F)c1
/,-15,CC(C)N(CC(N)=O)C(=O)c1ccc2c(c1)NC(=O)CS2
-0.2,/,CCOC(=O)c1nnn2c3ccccc3c(=O)n(C)c12
/,19,Cn1ncc2c(NCc3ccccc3)nc(N3CCN(CCO)CC3)nc21
/,-38,Cc1ccc(Cc2cnc(NC(=O)/C(C#N)=C\c3ccc(-c4ccc(C)cc4)o3)s2)cc1
-15,12,COC(=O)Cn1cnc2c(cnn2-c2ccc(OC)cc2)c1=O
2.6,-7,CCC(=O)Nc1nn2c(C)nnc2s1
0.7,/,COc1cc(C2Nc3ccccc3C(=O)N2c2cccc3ccccc23)cc(OC)c1OC (stereo not drawn)
/,-24,CC12CCC(C(=O)N3CCCC3)(CC1=O)C2(C)C (stereo not drawn)
-2.4,/,O=C(O)CSCC(=O)NCCNc1nccc(C(F)(F)F)n1

(list continues)
MgrA DNA FP,Sa helicase inh,structure
/,5,COc1cc(C2OC(=O)c3c2ccc(OC)c3OC)ccc1O (stereo not drawn)
/,12,CCc1cc2c(CN(C)Cc3ccccc3F)cc(=O)oc2cc1O
1.8,-3,CCC1=NN(C(=O)c2ccccc2F)C(O)(c2ccccc2)C1 (stereo not drawn)
/,7,COCCn1c(=S)[nH]c2sc(C)c(C)c2c1=O
-0.2,4,Cc1cc2ccc(C)c(C)c2nc1SCC#N
/,17,CO/N=C/c1c(N(C(C)C)C(C)C)nc2ccc(C)cn2c1=O
-2.2,/,Cc1ccc(S(=O)(=O)/N=C/N(C)C)cc1
/,0,O=C(Oc1coc(CSc2ncccn2)cc1=O)c1ccccc1
/,7,CCCCC(=O)N=c1sc2cc3c(cc2n1CCC)OCO3
/,-4,O=C(Cc1c(F)cccc1Cl)OCc1ncc(-c2ccccc2)o1
/,12,Cc1cccc2c1NC(=O)C21OCCO1
-0.8,5,CSc1nc(SCC(=O)c2ccc3c(c2)OCO3)nc(N)c1C#N
-1.8,0,OCC1CCCN(Cc2ccc(-c3ccccc3)cc2)C1 (stereo not drawn)
0.3,48*,CCc1ccc2oc(-c3ccccc3)cc(=NCc3cccnc3)c2c1
/,4,CC(C)CNC(=O)COc1ccc(Cl)cc1Cl
0.6,7,COC(=O)C1=CN(C23CC4CC(CC(C4)C2)C3)C=C(C(=O)OC)C1c1ccc(F)cc1
2.9,9,CCN1C(=O)N/C(=C/c2cccn2-c2ccc(C(=O)O)cc2)C1=O
/,-34,Cc1sc2nc(CSc3nc4ccccc4n3CC(C)C)[nH]c(=O)c2c1C
0.0,8,Cc1noc(C)c1C(=O)NCc1ccccc1F
/,15,CCN(CC)C(=O)c1ccc2c(c1)N(Cc1ccccc1)C(=O)CS2=O (stereo not drawn)
-1.6,/,O=S(=O)(CC(O)Cn1ccc(C(F)(F)F)n1)c1ccc(Cl)cc1 (stereo not drawn)
0.3,15,NC(=O)C1CCN(C(=O)CC2(CC(=O)O)CCCC2)CC1
-0.8,5,COC(=O)/C=C\c1cn(-c2ccccc2)nc1-c1ccc(OC)cc1
/,-5,CC(CCc1ccccc1)NC(=O)C1=COCCO1 (stereo not drawn)
1.2,/,CCOC(=O)C(C)Oc1ccc2c(=O)c(-c3csc(C)n3)c(C(F)(F)F)oc2c1 (stereo not drawn)
/,6,CC1CC(C)CN(C(=O)Cn2nnc(-c3cccc(C(F)(F)F)c3)n2)C1 (stereo not drawn)
/,-1,CCN(Cc1ccccc1)C(=O)CN1C(=O)C2CC=CCC2C1=O (stereo not drawn)
-2.0,/,Cc1nc(C(F)(F)F)ccc1C(=O)Nc1ccccc1N1CCOCC1
-0.5,1,O=C(Oc1ccccc1F)N1c2ccccc2Sc2ccccc21
